# Source: PubChem
# VACV mCherry inh – vaccinia inhibition (mCherry reporter). Vaccinia virus mCherry reporter infection, fluorescence; about a quarter of the inactives have no number. Potency, µM (doses to about 36.5 µM), inactives show at the top dose activity change, negative = inhibition, actives largely listed as inhibitors. 310,000 tested, 0.63% active. AID 720579; active = well fitted inhibition curve with a large enough effect; inconclusive = small, poorly fitted or top-dose-only effect; inactive = no such curve, though single readings can be large or run the other way; tested in A549 cells; also: nearly all actives have a fitted effect of over 35% in size; inactives centre near -10
# Vaccinia Venus – vaccinia inhibition (Venus reporter) | Vaccinia virus Venus reporter expression, fluorescence | Potency, µM (highest dose often 36.5 µM), for the others: at the highest dose activity change, negative = inhibition, hits mostly inhibitors | 330,000 tested, 0.46% active; active means well fitted inhibition curve with a large enough effect; inconclusive means small, poorly fitted or top-dose-only effect; inactive means no such curve, though single readings can be large or run the other way; tested in A549 cells; also: nearly all actives have a fitted effect of over 30% in size; inactives centre near -10
# Starred values were filed as active, the others as inactive; i = inactive; ? = inconclusive; nt = no result given; [ ] = another dose, or the depositor's remark. % is scaled to controls: 0 for no effect and ±100 for the full control effect; potency is read from the fitted curve at half-maximal effect. Outcome played no part in choosing rows; any-hit rate near 0.86%.
# Start of the listing, in advance:
SMILES	Vaccinia Venus	VACV mCherry inh
COc1cc(S(=O)(=O)N(Cc2cccnc2)Cc2cccc(OC)c2OC)ccc1-n1cnnn1	-11.8%	0.6%
CCC(CC)C(=O)Nc1cccc(-c2nc3cccnc3s2)c1C	-4.9%	-7.9%

# This part in full, repeating the preview:
SMILES	Vaccinia Venus	VACV mCherry inh
COc1cc(S(=O)(=O)N(Cc2cccnc2)Cc2cccc(OC)c2OC)ccc1-n1cnnn1	-11.8%	0.6%
CCC(CC)C(=O)Nc1cccc(-c2nc3cccnc3s2)c1C	-4.9%	-7.9%
Cc1nc(-c2nc(CC(=O)NNC(=O)c3ccc(Cl)cc3)cs2)cs1	-6.8%	-9.1%
CC(C)C(=O)Nc1nnc(S(=O)(=O)N2CCCc3ccccc32)s1	-2.2%	11.9%
CCOC(=O)Cn1nc(-c2ccccc2)c2ccccc2c1=O	4.9%	-14.8%
O=[N+]([O-])c1ccc(S(=O)(=O)Nc2ccc(-c3ccc(N4CCOCC4)nn3)cc2)cc1	-21.3%	-7.9%
COc1cc(CN2C[C@@H](CO)O[C@@H](n3cnc4c(NCCN(C)C)ncnc43)C2)cc(OC)c1OC	13.3%	5.3%
CCOc1ccc(NC(=O)CSc2nnc(C)n2CCCOC)cc1	-2.2%	i
COc1cccc(Cn2cc(S(=O)(=O)c3ccc(C)cc3)c(=O)c3cc4c(cc32)OCO4)c1	-20.3%	-13.4%
COc1cc(NC(=O)[C@H]2CCCN2S(=O)(=O)c2cccc3cccnc23)cc(OC)c1OC	-6.4%	-24.2%
CCC(C)(C(=O)NC1CCCC1)N(C(=O)CNC(C)=O)c1ccc(C)cc1 (stereo not drawn)	3.2%	-8.8%
COc1cccc(CN2CCC2(C)C(=O)Nc2cnc3ccccc3c2)c1F (stereo not drawn)	-16.7%	12.0%

# Next part
SMILES	Vaccinia Venus	VACV mCherry inh
COc1ccc(CNC(=O)CCc2c(C)nn(-c3ccc(N4CCCCC4)nn3)c2C)cc1	-10.3%	-0.5%
COc1ccccc1NC(=O)c1ccc(-c2ccc(Br)cc2)o1	?	?
CCC(C)(C)n1nnnc1C(c1cc2cc3c(cc2[nH]c1=O)OCO3)N1CCCCC1 (stereo not drawn)	-15.2%	-11.4%
COc1cccc(CNS(=O)(=O)c2ccc(S(=O)(=O)N3CCCC3)cc2)c1	-3.1%	-0.9%
COc1cc(NS(=O)(=O)c2ccc(NC(=S)NC(=O)c3ccc(F)cc3)cc2)nc(OC)n1	-7.1%	0.9%
CN(Cc1ccccc1)C(=O)CCS(=O)(=O)c1ccc2c(c1)NC(=O)CS2	-14.6%	-28.3%
CC(Sc1nnc(CNC(=O)c2ccco2)n1C)C(=O)Nc1nccs1 (stereo not drawn)	1.2%	5.1%
O=C(NCc1cccc(F)c1)Nc1nnc([C@H]2C[C@H](O)[C@@H](CO)O2)s1	12.6%	-2.0%
CCC1=C(OC(=O)N(CC)CC)N2C(=O)OC(=NCCOC)[C@]2(Cc2ccccc2)[C@H]2C1=CC[C@H]1C(=O)N(C)C(=O)[C@H]12	-3.9%	i
COc1ccc(OC)c(NC(=O)C2CCN(C(=O)c3cccs3)CC2)c1	-8.7%	i
CC(Oc1ccc(Br)cc1)C(=O)Nc1cc(S(=O)(=O)N2CCOCC2)ccc1N1CCCC1 (stereo not drawn)	-5.8%	?
COc1ccc(NS(=O)(=O)c2cccc(C(=O)NNC(=O)COc3ccccc3)c2)cc1	-16.7%	i

# (listing goes on)
SMILES	Vaccinia Venus	VACV mCherry inh
COc1cccc(/C=C/C(=O)OCC(=O)NCc2ccc3c(c2)OCO3)c1	-4.8%	-18.3%
CC(C)(C)c1ccc(C(=O)N2CCC(c3nc4ccccc4o3)CC2)cc1	-19.7%	-17.0%
COc1ccccc1OCCNC(=O)CSC(=S)N1CCCC1	-3.7%	-11.6%
Cc1nc(Nc2nc(CSc3nc4ccccc4[nH]3)cc(=O)[nH]2)nc2ccccc12	10µM*	10µM*
Cc1cc(Cl)c(OCCCCN2CCOCC2)c(Br)c1	-8.4%	-14.5%
O=C(O)CCC(=O)N1CC=C(c2ccccc2)CC1	-3.3%	-11.5%
CC(C)NS(=O)(=O)c1ccc(OCC(=O)N2CCCC2)c(Cl)c1	-10.2%	-4.1%
O=C(Nc1cc([N+](=O)[O-])ccc1N1CCCC1)c1ccco1	-0.3%	3.6%
CCOc1ccccc1N(CC(=O)Nc1cccnc1)S(=O)(=O)c1ccc(C)cc1	-9.7%	-12.2%
CC(C)(C)C(=O)OCCNc1nc(-c2ccccc2)nc2ccccc12	-24.7%	?
CC(=O)Nc1cccc(NC(=O)c2cc3c(=O)n4cccc(C)c4nc3n2C)c1	-8.1%	-4.8%
CC(C)c1ccc(NC(=O)c2cc(S(=O)(=O)NCCC3=CCCCC3)ccc2F)cc1	-24.5%	-24.5%

# Next part
SMILES	Vaccinia Venus	VACV mCherry inh
Cc1cccc(C)c1CC(=O)N1CCOCC1	10.1%	-8.0%
Cc1ccnc(NC(=O)c2ccc(COc3ccc(Cl)cc3)o2)c1	4.7%	-5.7%
COc1cc(N)c(Cl)cc1C(=O)OCC(=O)NC(=O)NCc1ccco1	-16.8%	-22.0%
CC(=O)c1cccc(CN2CCC(n3nccc3NC(=O)CCc3ccccc3)CC2)c1	-7.1%	-16.6%
C#CCOCCOCCOCCNc1nc(N2CCN(C(=O)[C@H](C(C)C)n3cc(CCO)nn3)CC2)nc(N2CCN(C(=O)[C@H](C)n3cc(CCCN=C(N)N)nn3)CC2)n1	5.9%	-13.6%
CCN(CC)C(=O)CSc1nc2c(sc(=S)n2-c2ccccc2OC)c(=O)n1-c1ccccc1	-11.8%	i
O=C1OCCN1C(=O)[C@H]1[C@H](c2ccccc2)C(c2cccc(Cl)c2)=NN1c1ccccc1	-13.5%	-8.4%
Cc1ccc(OCCC(=O)OCC(=O)N2c3ccccc3CC2C)cc1 (stereo not drawn)	-9.7%	nt
COCC(=O)n1nc(-c2ccc(C)cc2)nc1NCc1ccc(F)cc1	-6.7%	i
Cc1cc(C([O-])=C(C(=S)Nc2ccccc2)[n+]2ccccc2)c(C)n1-c1ccccc1	-2.5%	-28.1%
O=C(c1ccc(Cl)c(S(=O)(=O)N2CCOCC2)c1)N1CCCCC1	-6.2%	i
COCC(C)N=Cc1c(O)[nH]c2ccccc12 (stereo not drawn)	49.3%[activator]	-10.0%

# (next part)
SMILES	Vaccinia Venus	VACV mCherry inh
Cc1ccc(C(C#N)=Cc2ccc3c(c2)OCO3)cc1	-24.2%	?
CCOc1ccc(C(=O)NC(=S)Nc2ccccn2)cc1[N+](=O)[O-]	-7.6%	nt
O=C(Nc1cccc2ccccc12)C1CCN(C(=O)Cc2ccccc2)CC1	-8.0%	nt
CC(C)c1cccc(C(C)C)c1NC(=S)Nc1cccc(Cl)c1	1.5%	i
CCOC(=O)c1ccc(N2C(=O)CC(C(=O)OC)=C2C)cc1	-12.6%	-1.8%
CCOc1ccc(NC(=O)CN(C)C(=O)C2COc3ccccc3O2)cc1OCC (stereo not drawn)	4.0%	i
O=C1CC(C(=O)Nc2cccc(Cl)c2)n2ncnc2N1 (stereo not drawn)	-4.8%	i
COc1ccccc1CNCC(=O)Nc1ccc(C#N)cc1	-2.5%	-7.4%
O=C(/C=C/C(=O)N1CCc2ccccc2C1)N1CCc2ccccc2C1	-12.1%	-0.2%
O=C(NCCc1nnc2ccc(NCC3CCCO3)nn12)c1ccccc1 (stereo not drawn)	-7.5%	-11.2%
Cc1ccc(Cl)c(OCC(=O)Nc2ccccc2N2CCCCC2)c1	-5.5%	-8.2%
COc1ccccc1NC(=O)c1cc2c(CO)cnc(C)c2oc1=Nc1cc(OC)c(OC)c(OC)c1	-15.5%	i

# Next part
SMILES	Vaccinia Venus	VACV mCherry inh
CSc1ccc(C(=O)C2CCCN(Cc3cccnc3)C2)cc1 (stereo not drawn)	-8.7%	-5.3%
Cc1nc2c3cc(F)ccc3n(CCN3CCCCC3)c2s1	-17.5%	i
O=C(NCC(c1ccc(F)cc1)N1CCOCC1)c1ccco1 (stereo not drawn)	-3.1%	-14.6%
O=S(c1ccccc1O)S(=O)c1ccccc1O (stereo not drawn)	-2.4%	-9.0%
Cc1oc2cc3oc(=O)c(CC(=O)NCC(=O)N[C@@H](C(=O)O)c4ccccc4)c(C)c3cc2c1C	-13.4%	3.6%
CC1(C)Cc2c(cnn2-c2ccc(F)cc2)C(NC(=O)c2ccc(=O)oc2)C1 (stereo not drawn)	-11.3%	i
Cc1ccc(C)c(N2CCN(c3ccc(NC(=O)c4cccs4)cc3C(=O)O)CC2)c1	-16.5%	-13.5%
COc1ccc(-c2noc(CN(C)C3CCOCC3)n2)cc1	-14.2%	i
Oc1ccc(Nc2nc(N3CCCC3)c3ccccc3n2)cc1	8.91µM*	?
COc1ccccc1N1CCN(C(=O)CN(CCc2ccccc2)S(C)(=O)=O)CC1	-19.0%	-8.2%
CCN(CC)CC#CCC(O)(c1ccccc1)C1CCCC1 (stereo not drawn)	-9.5%	i
CCn1cc(CN2CCc3c([nH]c4ccccc34)C2c2cccc(O)c2)c(C)n1 (stereo not drawn)	-12.6%	-6.9%

# (further entries)
SMILES	Vaccinia Venus	VACV mCherry inh
CCCOC(=O)c1c(NC(=O)CCCn2nc([N+](=O)[O-])cc2C)sc(C(=O)OC)c1C	0.7%	-14.2%
CCOc1ccccc1CNC(=O)C1CCCN(c2nnc(C)c3c(C)n(-c4ccccc4)nc23)C1 (stereo not drawn)	?	?
O=C1NC(=O)N(Cc2cccs2)C(=O)/C1=C/c1ccc(N2CCOCC2)cc1	8.5%	-2.1%
C[C@@H]1CN([C@@H](C)CO)C(=O)CCCn2nncc2CO[C@H]1CN(C)C(=O)c1cc(-c2ccccc2)on1	-8.1%	-0.7%
CN(C)C(=S)NC(=O)C12CC3CC(C)(CC(C)(C3)C1)C2	-1.9%	-13.3%
COc1ccc(-c2cc(C(F)(F)F)c(C#N)c(SCC(=O)Nc3nc(C)co3)n2)cc1	-14.9%	-13.4%
O=C(O)C1CCN(S(=O)(=O)c2ccc3c(c2)OCCCO3)CC1	-8.3%	i
COc1cccc(N(CC(=O)NC2CCCCC2)C(=O)c2snc(C(N)=O)c2N)c1	3.0%	-4.9%
Cc1ccc(NC(=O)COc2coc(CN3CCc4ccccc4C3)cc2=O)c(C)c1	-16.0%	-20.9%
C/C=C/COC(=O)C1=C(C)NC(=O)NC1c1ccc2c(c1)OCO2 (stereo not drawn)	-1.8%	-12.0%
O=C(CCS(=O)(=O)c1ccc(Cl)cc1)Oc1ccc2c(c1)OCO2	-11.5%	nt
COc1cccc(-c2n[nH]nc2C2=CC(=O)C[C@H](c3ccc(F)cc3)C2)c1	-24.6%	i

# (more compounds)
SMILES	Vaccinia Venus	VACV mCherry inh
COCCC(=O)N1CCC(Oc2ccc(C(=O)N3C[C@H]4CC[C@H]3C4)cc2)CC1	-17.0%	-20.6%
Cn1c(=O)c2cc(NC(=O)Cc3cccc4ccccc34)ccc2n1-c1ccccc1	-26.5%	7.8%
CCCCCCn1c(-c2cccs2)n[nH]c1=S	-12.5%	i
COc1ccc(CN2CC=C(c3ccc(F)cc3)CC2)cc1Br	-20.3%	-29.6%
COc1ccc(CC(=O)OC(C)C(=O)Nc2ccc(S(N)(=O)=O)cc2)cc1 (stereo not drawn)	-12.5%	i
Cc1cc(C)n(-c2ccc(Cl)c(C(=O)OCC(=O)N3CCCCC3C)n2)n1 (stereo not drawn)	-1.8%	nt
Cc1ccc(NC(=S)Nc2ccc(C(C)C)cc2)cc1S(=O)(=O)N1CCCCCC1	?	?
Cc1ccc(-n2ncc3c(N4CCCC(C)C4)ncnc32)c(C)c1 (stereo not drawn)	-19.4%	-2.6%
O=C(N/N=C1/SCC(=O)N1Cc1ccco1)c1ccccc1F	1.1%	-7.4%
CCCCN1CN(Cc2ccccc2)CNC1=S	-10.9%	-3.5%
CCCCC1(C)OC(=O)C(=Cc2ccc(SC)cc2)C(=O)O1 (stereo not drawn)	-7.8%	i
O=C(Nc1ccc(F)cc1F)C1CCN(c2ncnc3c2sc2cccc(F)c23)CC1	-14.6%	-8.9%

# Continued:
SMILES	Vaccinia Venus	VACV mCherry inh
COn1c2c(c3c4no[n+]([O-])c4ccc31)CCCC2	-11.8%	-1.7%
Cc1cc(O)c(C(c2ccccc2Cl)N2CCCCC2)c(=O)n1Cc1ccco1 (stereo not drawn)	-10.0%	-12.7%
c1csc(-c2nc(N3CCCCC3)no2)c1	-7.6%	i
O=C1/C(=C/c2cccnc2)SC(=NCc2ccccc2)N1Cc1ccccc1	7.3%	-8.3%
C[C@@H]1OC(Nc2ccc(N=Nc3ccccc3)cc2)[C@H](O)[C@H](O)[C@H]1O (stereo partly drawn)	-1.4%	?
Cc1cc(C(C)(C)C)ccc1NC(=O)CC(C)(C)CC(=O)O	-18.9%	-21.2%
Cc1ccc(NC(=O)COC(=O)C2(c3ccc(Cl)cc3)CCCC2)cc1	-10.8%	-13.3%
C[C@@H]1CN([C@H](C)CO)C(=O)c2cc(C#CC3CCCCC3)cnc2O[C@H]1CN(C)Cc1cccnc1	-12.0%	-3.0%
O=C(NC1CCN(Cc2ccccc2)C1)c1cccc(S(=O)(=O)N2CCOCC2)c1 (stereo not drawn)	-11.2%	-13.1%
CC(c1ccccc1F)n1cc(C(=O)NCCCc2nc3ccccc3[nH]2)nn1 (stereo not drawn)	?	i
COc1cccc(NC(=O)CN(C)C(=O)c2cn(-c3ccccc3)nc2-c2cccnc2)c1	-8.1%	-4.1%
CC(=O)NCCOc1nc(N(C)C)nc(N2CCOCC2)n1	2.9%	-3.0%
